PINK1 modulator – A Quantitative High throughput Screen to Identify Chemical Modulators of PINK1 Expression; PINK1 immunofluorescence, high-content cytometry, 24 h; Potency, µM (top dose mostly 76.6 µM), inactives show at the highest dose activation (PINK1 increase), most hits filed as activators; actives 0.2% (n = 410,000); AID 624263, 2012; active = well fitted activation curve with a large enough effect; inconclusive = small, poorly fitted or top-dose-only effect; inactive = flat fitted curve, though single readings scatter; cell line not stated here;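 also: potency is read from the fitted curve at half-maximal effect; % of control where 0% means no effect; nearly all actives have a fitted effect of over 65% in size; a mitochondrial uncoupler was the plate control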
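Fluorescence from anti-PINK1 antibody, together with nuclear and cell stains, was scanned on a laser-scanning cytometer. Before staining, stable-line cells were incubated 24 hours with compounds at 5 concentrations; primary antibody 12 h at 10 degrees C.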
TRPV1 potentiator – HTS Assay for Compounds that Act as Potentiators of the Vanilloid Receptor 1; actives 0.02% (n = 320,000); TRPV1-expressing cells, Fluo-8 calcium influx, capsaicin EC20 potentiation; host cell line not named in the record; control for the full effect not named in the record; potentiation, % at 8.33 µM; active means potentiation above 80%; inconclusive means 30% to 80%; inactive means below 30%; also: 0% is about no effect
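Fluo-8 calcium influx in TRPV1-expressing cells, kinetic read (ex 480/em 520 nm). Compound added and read 3 min for agonist activity, followed by capsaicin at EC20 final and 2 min further read for enhancement.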
CtBP-E1A blk – qHTS Assay for Inhibitors of the CtBP/E1A Interaction | CtBP / adenovirus E1A interaction (AlphaScreen) | AlphaScreen GST-E1A/His-CtBP binding, 1536-well; hits give low values; control for the full effect not named in the record | activity change, % (no concentration beside the values) | actives 0.49% (n = 340,000) | AID 651724, 2012; in the data active means activity change below about -65%; inconclusive means about -30% to -65%; inactive means above about -30%; also: % is scaled to controls: 0 for no effect and ±100 for the full control effect; compound concentration not given in the record
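AlphaScreen with 125 nM GST-E1A and 125 nM His-CtBP (5X stocks) in Tris pH 8.0, 300 mM NaCl, BSA, Tween 20, TCEP. Compounds preincubated 2 h at 37 deg C, then glutathione donor/nickel acceptor beads added for 1 h at 37 deg C in dark.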
D2 agonist – Beta-Arrestin HTS for Positive Allosteric Modulators of the Human D2 Dopamine Receptor: Agonists. actives 0.084% (n = 360,000). activation, % (no concentration beside the values). DiscoveRx PathHunter D2 beta-arrestin, luminescence, 90 min; 100% = 57 uM dopamine signal. AID 624465, 2012. D(2) dopamine receptor (Homo sapiens), P14416; in the data active = activation above about 40%; inconclusive = about 15% to 40%; inactive = below about 15%; also: compound concentration not given in the record; the text of the record calls up to 30% inactive
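Agonist mode: compounds alone added to overnight-plated D2 PathHunter cells for 90 min at 37 C, with 57 uM final dopamine (EC100) defining full response. Beta-arrestin recruitment detected by chemiluminescent reagent, read after 1 h at ambient temperature.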
Sfp inh – qHTS Assay for Inhibitors of Bacillus subtilis Sfp phosphopantetheinyl transferase (PPTase); AID 1490, 2009; Biochemical Sfp PPTase activity, qHTS; actives 3.5% (n = 310,000); Potency, µM, for inactives: max response, negative = inhibition, hits mostly inhibitors; active = well fitted inhibition curve with a large enough effect; inconclusive = small, poorly fitted or top-dose-only effect, or another doubt; inactive = no such curve, though single readings can be large or run the other way;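 also: the enzyme is Sfp with the accession as filed and its product quenches rhodamine fluorescence; potency is read from the fitted curve at half-maximal effect; 0% = enzyme reaction without inhibitor and -100% = no enzyme wells; top concentration of the series not given in the record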
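With Hepes-Na pH 7.6 buffer containing 10 mM MgCl2, Sfp (15 nM) modified BHQ-2-YbbR (12.5 uM) using rhodamine-CoA (5 uM). Two reads 30 minutes apart at 525/598 nm yielded each well's rate.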
D2 PAM – Beta-Arrestin HTS for Positive Allosteric Modulators of the Human D2 Dopamine Receptor: Potentiators | D(2) dopamine receptor (Homo sapiens), P14416 | AID 624464, 2012 | potentiation, % (no concentration beside the values) | actives 0.23% (n = 360,000) | DiscoveRx D2 beta-arrestin cells, luminescence, 90 min; 100% = 57 uM dopamine signal; active = potentiation of 50% or more; inconclusive = 30% to 50%; inactive = 30% or less;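 also: compound concentration not given in the record; tested on top of an EC20 dose of dopamine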
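D2 cells co-treated with compound plus 50 nM dopamine (EC20) for 90 min at 37 deg C to detect potentiation. Beta-arrestin recruitment was read as enzyme-fragment luminescence after 1 h at ambient temperature. Full response was set by 57 uM dopamine.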
Six1-Eya2 inh – qHTS Assay for Inhibitors of the Six1/Eya2 Interaction; AlphaScreen GST-Six1/His-Eya2 binding, biochemical; hits give low values; control for the full effect not named in the record; activity change, % (no concentration beside the values); actives 0.56% (n = 360,000); AID 651725, 2012; in the data active = activity change below about -65%; inconclusive = about -30% to -65%; inactive = above about -30%; also: % is scaled to controls: 0 for no effect and ±100 for the full control effect; compound concentration not given in the record
Target sequence (O00167 whole entry, looked up): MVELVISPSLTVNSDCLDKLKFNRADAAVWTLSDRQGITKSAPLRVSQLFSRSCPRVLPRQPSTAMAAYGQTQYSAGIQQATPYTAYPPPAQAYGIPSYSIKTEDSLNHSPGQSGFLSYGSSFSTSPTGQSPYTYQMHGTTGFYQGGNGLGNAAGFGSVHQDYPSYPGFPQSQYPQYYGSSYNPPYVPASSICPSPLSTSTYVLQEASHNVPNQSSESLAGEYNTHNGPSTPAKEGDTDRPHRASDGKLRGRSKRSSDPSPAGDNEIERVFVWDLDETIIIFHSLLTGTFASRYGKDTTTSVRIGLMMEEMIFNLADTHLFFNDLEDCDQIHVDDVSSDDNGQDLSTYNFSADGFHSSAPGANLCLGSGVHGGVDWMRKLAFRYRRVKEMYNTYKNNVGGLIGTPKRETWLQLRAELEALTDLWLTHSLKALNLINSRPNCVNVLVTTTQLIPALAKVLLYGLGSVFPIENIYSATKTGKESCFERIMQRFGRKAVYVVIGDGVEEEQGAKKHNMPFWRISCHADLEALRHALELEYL
Target sequence (Q15475 whole entry, looked up): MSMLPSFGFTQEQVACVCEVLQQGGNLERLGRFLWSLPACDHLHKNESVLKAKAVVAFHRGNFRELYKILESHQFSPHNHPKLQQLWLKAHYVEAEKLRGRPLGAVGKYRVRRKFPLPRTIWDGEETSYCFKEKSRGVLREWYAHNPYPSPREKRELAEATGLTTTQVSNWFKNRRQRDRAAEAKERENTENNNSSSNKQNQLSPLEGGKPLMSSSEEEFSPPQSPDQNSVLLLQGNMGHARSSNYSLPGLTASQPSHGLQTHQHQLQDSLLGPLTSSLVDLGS
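Six1/Eya2 binding was read as AlphaScreen signal after compounds were pinned into GST-Six1 plus His-tagged Eya2 (5X stock 250/500 nM) in pH 8.0 Tris/NaCl/TCEP buffer, beads added, then incubated 1 h, 37 C, dark.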
* hit, by the source's call; ? = inconclusive; · = not tested or not shown; [ ] = another dose, or the depositor's remark.

SMILES	PINK1 modulator	TRPV1 potentiator	CtBP-E1A blk	D2 agonist	Sfp inh	D2 PAM	Six1-Eya2 inh
CCN(C(=O)CSC1=Nc2ccccc2C2CC=NN12)C1CCS(=O)(=O)C1 (stereo not drawn)	2.1%	-1	-21	-6.6	-1%	-1	-17
CCn1c(=NC(=O)c2ccco2)sc2cccc(F)c21	-0.5%	2	3	3.7	0%	-5	-3
COc1ccc(N2C(=NC(=O)C3CCCO3)SC3CS(=O)(=O)CC32)cc1 (stereo not drawn)	-0.4%	-3	14	-0.1	10%	-3	1
O=C(O)c1ccccc1/C=N/Nc1ccc(S(=O)(=O)Nc2ccc(Cl)cc2)cc1[N+](=O)[O-]	3.2%	·	?	-0.8	·	-7	?
CNC1(c2nnnn2-c2ccccc2C)CCOC(C)(C)C1 (stereo not drawn)	1.1%	-14	3	-4.1	-3%	-7	2
Nc1c(C(O)(C(F)(F)F)C(F)(F)F)ccc2ccccc12	5.2%[38.3 µM]	-10	-9	-0.9	45µM*	-4	-3
COc1ccc2c(c1)OC[C@H]1[C@H]2N2C(=O)CN(CCc3c[nH]c4ccccc34)C(=O)[C@@]2(C)[C@H]1c1ccccc1	0.6%	-1	-20	0.5	·	-16	-25
COc1ccccc1CNC(=O)c1cc(-c2ccccc2)nn1CC1CC(c2cccc([N+](=O)[O-])c2)=NO1 (stereo not drawn)	-1.2%	·	-12	3.9	·	-4	-9
Cc1ccc(C(=O)Cn2c3[n+](c4ccccc42)CC(O)CS3)cc1 (stereo not drawn)	0.6%	4	-4	-1.8	4%	-18	7
CS(=O)(=O)NCCNc1ncc(C(F)(F)F)cc1Cl	1.3%	11	-1	-3.0	13%	-5	-1
Cc1[nH]nc2c1C(c1ccc(F)cc1)C(C#N)=C(N)O2 (stereo not drawn)	2.0%	-22	-3	-2.2	13%	-3	5
COc1ccc(S(=O)(=O)N(C)c2ccc(C(=O)NCC3CCCO3)cc2)cc1 (stereo not drawn)	·	-24	-7	-1.9	20%	-16	-7
CCOC(=O)c1c(NC(=O)CN2C(=O)NC3(CCC(C)CC3)C2=O)sc(C)c1CC (stereo not drawn)	?	9	0	3.0	·	-9	6
CCC(C)NC(=O)c1ccc(CSCc2ccccc2Cl)o1 (stereo not drawn)	0.1%	-30	1	-0.8	-6%	-9	8
CCC(C)C(=O)Nc1nc2ccc(S(C)(=O)=O)cc2s1 (stereo not drawn)	0.4%	13	·	1.1	-14%	-3	0
CC(C)C[C@@H](COCc1ccc([N+](=O)[O-])cc1)N1CCN(C(=O)c2ccc(C(F)(F)F)cc2)CCC1=O	1.5%	·	-90*	·	·	·	-69*
CCOC(=O)C1(Cc2ccccc2C(F)(F)F)CCN(C(=O)c2cc(C(C)=O)n[nH]2)CC1	0.7%	-8	9	-3.5	3%	-9	-1
COCCOC(=O)c1c(C)oc2ccc(OCC=C(C)C)cc12	0.4%[38.3 µM]	8	75	-0.5	-16%	-7	53
O=C(Cn1nc2n(c1=O)-c1ccccc1SC2)N/N=C/c1cccs1	-1.2%	0	-8	-2.6	-9%	-20	-3
CCOC1=C2CN(S(=O)(=O)c3ccc(C)cc3)[C@H](c3ccccc3)C[C@@H]2N(S(=O)(=O)c2ccccc2C)[C@H](c2ccccc2)C1	-0.2%	·	-8	-13	·	1	-10
CCC(CC)c1nnc(NC(=O)Cc2cccs2)s1	2.0%	10	9	4.6	1%	1	-2
C=C(C)CSc1nnc(-c2ccc(OC)c(OC)c2)n1N	0.6%	-9	-6	0.2	12%	4	7
O=C(O)CNC(=O)c1ccccc1F	-1.9%	8	5	0.3	-12%	18	4
CCOc1ccc(-n2c(C)c3c(C)nnc(C)c3c2C)cc1	6.3%	·	1	-3.0	·	-6	-8
COc1cc([N+](=O)[O-])cc2sc(NC(=O)c3c(F)cccc3F)nc12	0.1%	-9	2	-5.0	9%	-3	5

Only Sfp inh, Six1-Eya2 inh and PINK1 modulator, for some of the entries so far:
Compound	Sfp inh	Six1-Eya2 inh	PINK1 modulator
O=C(O)CNC(=O)c1ccccc1F	-12%	4	-1.9%
CCC(C)C(=O)Nc1nc2ccc(S(C)(=O)=O)cc2s1 (stereo not drawn)	-14%	0	0.4%
O=C(Cn1nc2n(c1=O)-c1ccccc1SC2)N/N=C/c1cccs1	-9%	-3	-1.2%
Cc1[nH]nc2c1C(c1ccc(F)cc1)C(C#N)=C(N)O2 (stereo not drawn)	13%	5	2.0%

One compound at a time, as listed above.
Shown for C=C(C)CSc1nnc(-c2ccc(OC)c(OC)c2)n1N = PINK1 modulator = 0.6%; TRPV1 potentiator = -9; CtBP-E1A blk = -6; D2 agonist = 0.2; Sfp inh = 12%; D2 PAM = 4; Six1-Eya2 inh = 7
Shown for CCOC(=O)C1(Cc2ccccc2C(F)(F)F)CCN(C(=O)c2cc(C(C)=O)n[nH]2)CC1 = PINK1 modulator = 0.7%; TRPV1 potentiator = -8; CtBP-E1A blk = 9; D2 agonist = -3.5; Sfp inh = 3%; D2 PAM = -9; Six1-Eya2 inh = -1
Shown for Cc1ccc(C(=O)Cn2c3[n+](c4ccccc42)CC(O)CS3)cc1 (stereo not drawn) = PINK1 modulator = 0.6%; TRPV1 potentiator = 4; CtBP-E1A blk = -4; D2 agonist = -1.8; Sfp inh = 4%; D2 PAM = -18; Six1-Eya2 inh = 7

New compounds follow
SMILES	PINK1 modulator	TRPV1 potentiator	CtBP-E1A blk	D2 agonist	Sfp inh	D2 PAM	Six1-Eya2 inh
COC(=O)CC1SC(=O)NC1=O (stereo not drawn)	0.0%	9	13	1.9	1%	-20	5
CSc1ccc(C(=O)C2CCCN(C(=O)CCc3cnn(C)c3)C2)cc1 (stereo not drawn)	-0.9%	-4	11	-3.8	6%	-6	2
CC(=O)N1N=C(c2ccc3ccccc3c2)OC1(C)C	7.9%	-8	-10	-4.4	-16%	-18	4
Cc1cc(C)cc(CC(=O)N2CCC2(C)C(=O)NS(=O)(=O)Cc2ccccc2)c1 (stereo not drawn)	0.6%	·	4	-1.0	·	0	2
CN(Cc1ccccc1)C(=O)COC(=O)C1CCN(S(=O)(=O)c2ccc(Cl)c(C(F)(F)F)c2)CC1	1.4%	4	3	-4.4	·	-5	8
Cc1nnc(SCC(=O)N2CCN(c3ccccc3F)CC2)n1C1CC1	-0.8%	0	2	-6.5	·	-10	1
CCc1cc2cc(C)cc(C)c2nc1SCC(=O)N1CCCC1	6.7%	-25	-3	-5.2	1%	-13	-2
CC1(C(=O)NS(=O)(=O)C2CC2)CCCN(C(=O)Cc2ccc3ccccc3c2)C1 (stereo not drawn)	0.1%	·	7	1.9	·	-1	4
CC(C)OCC(O)CCc1n[nH]c(=S)n1-c1ccccc1 (stereo not drawn)	5.8%	-4	-6	-3.8	79µM*	-32	-7
COc1ccc(S(=O)(=O)N2CCOCC2)c(C)c1C	2.4%[38.3 µM]	-8	11	-1.3	9%	-4	5
COc1cc(C(=O)O)cc(NC(=O)c2cccs2)c1OC	-1.7%	?	0	-3.9	-29%	-18	0
COC(=O)c1ccc2c(=O)n(Cc3ccc(C(=O)NCCCN4CCOCC4)cc3)c(=S)[nH]c2c1	2.7%	19	-24	-3.5	10%	-14	-3
CN=c1sc2ccccc2n1CC(O)c1ccccc1 (stereo not drawn)	1.8%	-6	0	-0.5	2%	-14	-2
O=C(N/N=C/c1cccc(O)c1)c1cc(-c2ccccc2)nc2ccccc12	4.7%	5	-18	-3.0	17%	-8	-11
Clc1ccccc1Cn1nnc(-c2cccs2)n1	1.5%	-11	20	1.2	10%	-16	14
CCOc1ccc(NS(=O)(=O)c2ccc(NS(=O)(=O)c3cccs3)cc2)cc1	-0.3%	28	-4	-2.1	32%[activator]	0	3
CCc1nnc(NC(=O)CSc2nnc(C)n2Cc2ccccc2)s1	-1.7%	17	16	-2.8	1%	-5	0
Cc1ccc(Oc2ccc3c(c2)C(=O)N(c2cccc4cccnc24)C3=O)cc1	-2.5%	10	2	-2.7	9%	-8	5
Fc1ccc(/C=N/n2cnn(Cc3ccccc3Cl)c2=S)cc1	6.0%	3	2	0.6	50µM*	-6	9
CN(C)CCN(Cc1ccco1)C(=O)c1oc2ccccc2c1NC(=O)COc1ccccc1	2.6%	-9	-15	1.6	0%	-22	-13
O=C1CC(c2ccccc2)CC(=O)N1c1ccc(C(F)(F)F)cc1	0.9%	-4	0	-6.0	·	-11	4
CCN(CC(=O)Nc1ccccc1OC)C(=O)CSCC(=O)Nc1ccc(OC)cc1	-3.6%	3	1	-1.4	·	-6	3
CNC(=O)CSc1nc2cc(S(=O)(=O)Nc3ccc(OC)cc3)ccc2o1	-1.5%	·	0	-1.7	·	-14	-4
O=C(CN1C(=O)NC2(CCCC2)C1=O)N1CCN(S(=O)(=O)c2cc(Cl)ccc2Cl)CC1	1.6%	-1	-19	-5.7	·	-1	-7
CSC1=NCCN1C(=O)c1ccc(S(=O)(=O)N2CCOCC2)cc1	2.4%	-1	2	3.0	10%	-6	-1
Cc1ccccc1Oc1ccc(NC(=O)C2CC=CCC2C(=O)O)cc1 (stereo not drawn)	0.3%	9	0	-0.2	-1%	-5	-1

Screening results: PubChem, National Center for Advancing Translational Sciences (NCATS)
